# Source: PubChem BioAssay (Johns Hopkins Ion Channel Center)
# KCNQ2 block – KCNQ2 potassium channel inhibitors, primary screen, cell-based, CHO-K1, FluxOR thallium flux, B-score (AID 2156); Potassium voltage-gated channel subfamily KQT member 2 (Rattus norvegicus), O88943; 20 min; hits give low values; only compounds with negative scores are shown here; some inactives read as strong as hits; hit rate 1.1% among 310,000; B-score at 10 µM;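 active means fluorescence ratio B-score at most minus 3 library SDs, with starting brightness B-score within 2 library SDs, cut at about -5.5 in these data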
# Target sequence (O88943 whole entry, looked up): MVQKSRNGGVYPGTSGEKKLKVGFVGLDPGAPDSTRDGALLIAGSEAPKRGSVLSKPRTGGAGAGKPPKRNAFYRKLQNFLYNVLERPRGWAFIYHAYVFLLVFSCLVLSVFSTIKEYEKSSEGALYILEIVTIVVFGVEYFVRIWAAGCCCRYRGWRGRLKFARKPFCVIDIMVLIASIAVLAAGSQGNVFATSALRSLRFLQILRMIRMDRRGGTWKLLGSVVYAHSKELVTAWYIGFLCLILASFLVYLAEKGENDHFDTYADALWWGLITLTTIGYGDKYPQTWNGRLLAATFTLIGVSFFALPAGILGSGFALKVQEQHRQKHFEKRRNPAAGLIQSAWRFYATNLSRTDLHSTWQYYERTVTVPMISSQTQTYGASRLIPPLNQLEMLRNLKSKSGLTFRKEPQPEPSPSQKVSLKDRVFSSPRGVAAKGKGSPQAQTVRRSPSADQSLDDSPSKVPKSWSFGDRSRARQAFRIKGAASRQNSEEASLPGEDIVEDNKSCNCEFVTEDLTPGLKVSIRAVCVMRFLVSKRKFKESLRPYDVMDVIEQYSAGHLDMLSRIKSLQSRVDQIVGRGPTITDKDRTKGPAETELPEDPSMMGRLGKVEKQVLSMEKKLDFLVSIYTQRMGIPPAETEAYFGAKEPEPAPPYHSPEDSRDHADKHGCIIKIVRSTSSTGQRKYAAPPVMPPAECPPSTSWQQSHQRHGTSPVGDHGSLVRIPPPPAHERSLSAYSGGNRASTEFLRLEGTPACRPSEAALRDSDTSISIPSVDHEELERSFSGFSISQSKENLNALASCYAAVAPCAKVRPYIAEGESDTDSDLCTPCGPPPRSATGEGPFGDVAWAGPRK
# KCNQ2 block baseline – also measured in KCNQ2 block; calls as there; B-score; measured here: initial fluorescence intensity artifact check;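 brightness before thallium and not channel activity; 0 = typical well and far values either way flag optical interference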
# Numbers without * were called inactive; i = inactive.
SMILES,KCNQ2 block,KCNQ2 block baseline
COc1ccc(CN2CCNC(=O)C2CC(=O)NC2CCOCC2)cc1C (configuration not stated),i,0.36
O=C(Nc1ccc(-c2nnn(CC(=O)N3CCN(C(=O)c4ccco4)CC3)n2)cc1)c1ccc(F)cc1,i,-0.41
C/C(CC(=O)Nc1ccc(Cl)cc1Cl)=N\NC(=O)c1ccco1,i,0.79
CCc1ccccc1NS(=O)(=O)c1cc2c(cc1C)n(C)c(=O)c(=O)n2C,i,0.08
Cc1ccc(NCC(=O)N/N=C\c2cccc(O)c2)cc1,i,1.6
CC(C)c1ccc(NC2CCCN(C(=O)C3=NN(C)C(=O)CC3)C2)cc1 (configuration not stated),i,1.2
Cc1ccccc1NC(=O)COc1ccc(Br)cc1C,i,2
CCC(C)NC(=O)CNC(=O)c1nn(-c2ccc(OC)cc2)c(=O)c2ccccc12 (configuration not stated),i,0.16
COCc1cc(CN(C)C(=O)c2oc3c(F)cccc3c2C)[nH]n1,i,-0.14
CC1CC(C)CN(CC(=O)NCCc2ccc(S(N)(=O)=O)cc2)C1 (configuration not stated),i,-0.1
Brc1c(-c2ccccc2)nc2n1Cc1ccccc1-2,i,-0.01
COc1ccccc1-c1nnc2sc(COc3ccc(Cl)cc3)nn12,i,-2
COc1ccccc1Cn1c(=S)[nH]c2ccc(Br)cc2c1=O,i,-2.5
CCc1c(C)[nH]c(=S)c(C#N)c1C,i,2
COc1ccc(S(=O)(=O)N2CCN(C(=O)c3cccnc3)CC2)cc1OC,i,1.7
Cc1csc(Sc2nc3c(c(=O)[nH]c(=O)n3C)n2Cc2ccccc2Cl)n1,i,-2.1
Cc1ccc(O)c(-c2cc(C(=O)Nc3c(C)n(C)n(-c4ccccc4)c3=O)[nH]n2)c1,i,-0.8
C=CCN(c1ccccc1)S(=O)(=O)c1cccc(C(=O)Nc2ncccc2O)c1,i,-0.82
O=C(CCSc1nc(-c2ccco2)cc(C(F)(F)F)n1)N1CCN(c2ccccc2)CC1,i,0.89
Cc1occc1C(=O)N1CCCC(CO)(Cc2ccc(F)cc2F)C1 (configuration not stated),i,-0.41
Cc1c(NC(=O)C(C)NCC2CCCO2)c(=O)n(-c2ccccc2)n1C (configuration not stated),i,-0.35
CCCCSc1nnc(-c2ccccc2)c2ccccc12,i,-1.2
Cc1cc(NC(=O)COC(=O)CC2CCCC2)c([N+](=O)[O-])cc1C,i,-0.5
O=C(c1cc2c(s1)-c1ccccc1OC2)N1CCc2ccccc2C1,-5.6*,-0.15*
COc1cccc(C2CC(c3c(-c4ccccc4)c4cc(Cl)ccc4[nH]c3=O)=NN2S(C)(=O)=O)c1OC (configuration not stated),i,1.1
CCCCC(=O)Nc1ccc(C)c(O)c1,i,-0.74
O=C(CSc1n[nH]c(-c2ccncc2)n1)Nc1ccc(Cl)c(C(=O)O)c1,i,-1.1
COCCSc1ccccc1C(=O)N1CCN(c2ccccc2)CC1,i,2.4
Cn1c(C(=O)O)ccc1S(=O)(=O)N(Cc1ccccc1)Cc1ccccc1,i,-0.74
COc1ccccc1N1CC(C(=O)Nc2cccc(C(=O)O)c2)CC1=O (configuration not stated),i,1.2
CCN(CC(=O)Nc1cccc(OC)c1)C(=O)c1ccco1,i,-0.06
NS(=O)(=O)c1ccc(CCNC(=O)C2CCCCN2S(=O)(=O)c2ccccc2)cc1 (configuration not stated),i,0.56
Cc1nc([N+](=O)[O-])c(Sc2nc3ccccc3n2C)n1Cc1ccccc1,i,-0.24
COc1ccc(S(=O)(=O)NCC2CCCN(Cc3ccc(C)o3)C2)cc1 (configuration not stated),i,2.3
O=[N+]([O-])c1ccc(N2CCN(c3ccc(F)cc3)CC2)cc1,i,0.23
CCc1ccc2[nH]c3nc(SCc4nnc(-c5ccc(C)cc5)o4)nnc3c2c1,i,-1.2
O=C(NCCc1ccc(Cl)cc1)C1CCC(CNc2c(N3CCCCC3)c(=O)c2=O)CC1 (configuration not stated),i,-0.16
CCOC(=O)c1ccc(S(=O)(=O)Nc2nc3cc(S(=O)(=O)NC4=NCCCCC4)ccc3s2)cc1,i,0.26
N#CC1=C(N)Oc2cc(N)ccc2C1c1cccc(Br)c1 (configuration not stated),i,-0.01
Cc1cc(C(=O)N2CCN(C/C=C/c3ccccc3)CC2)cs1,i,2.6
CCc1c(C)nc(N)n2c(SCC(=O)NC3CCCCC3)nnc12,i,1.2
CCS(=O)(=O)N1Cc2ccccc2CC1C(=O)Nc1nnc(C2CC2)s1 (configuration not stated),i,1.7
CCCc1ccc(C(=O)N2CCN(c3ccccc3OCC)CC2)cc1,i,-0.18
CC(C)N(CCO)Cc1nc(C(c2ccccc2)c2ccccc2)no1,i,-0.06
CCOC(=O)c1nc(C)sc1-c1ccnn1S(=O)(=O)c1ccc(Cl)cc1Cl,i,-0.27
Cc1ccc(CNC(=O)CCC(=O)c2cccs2)cc1,i,2.6
Cc1noc(C)c1C(=O)OCC(=O)NC(c1ccccc1)c1ccccc1,i,-1.1
O=C(/C=C/c1ccccc1)NC(=S)NNC(=O)Cc1cccs1,i,1

# An excerpt of these results, as labelled records.
C=CCN(c1ccccc1)S(=O)(=O)c1cccc(C(=O)Nc2ncccc2O)c1
  KCNQ2 block: i; KCNQ2 block baseline: -0.82
O=C(CCSc1nc(-c2ccco2)cc(C(F)(F)F)n1)N1CCN(c2ccccc2)CC1
  KCNQ2 block: i; KCNQ2 block baseline: 0.89
Cc1occc1C(=O)N1CCCC(CO)(Cc2ccc(F)cc2F)C1 (configuration not stated)
  KCNQ2 block: i; KCNQ2 block baseline: -0.41

# Next compounds:
SMILES,KCNQ2 block,KCNQ2 block baseline
CCc1nn2c(N(C)CCO)cc(C)nc2c1-c1ccc(F)cc1,i,0.51
CC(=O)Nc1ccc(S(=O)(=O)NCCC(=O)NCCc2ccc(F)cc2)cc1,i,0.4
Cc1ccc(-c2nnc(Nc3ccc4c(c3)OCO4)c3ccccc23)cc1S(=O)(=O)NC(C)C,i,-0.52
CCN(CC)S(=O)(=O)c1ccc2c(c1)nc(CCC(=O)OCC(=O)Nc1cc(OC)cc(OC)c1)n2C,i,2
CCCCOc1ccc(C(=O)Nc2ccc(N3CCN(C)CC3)cc2)cc1,i,-0.31
Cc1noc(C)c1CSCC(=O)N(C)CC(=O)Nc1ccc(F)cc1,i,0.71
Cc1ccc(NC(=S)N2CCN(Cc3ccc4c(c3)OCO4)CC2)c(C)c1,i,-0.52
Cn1c(CNC(=O)c2ccc3c(c2)OCO3)nnc1SCC(=O)Nc1ccc(F)cc1F,i,0.25
CC[C@H](C)[C@H](NC(=O)c1ccc(Cl)cc1)C(=O)OCC(=O)c1ccc2c(c1)NC(=O)CO2,i,0.07
Cc1ccc(N(CC(=O)NC2CC3CCC2C3)S(C)(=O)=O)cc1C (configuration not stated),i,0.37
COc1ccc(S(=O)(=O)Nc2ccc(F)cc2)c(C)c1C,i,1.6
CS(=O)(=O)Nc1ccc(Br)cc1C(=O)c1ccccc1,i,-0.44
O=C(NCCN1CCOCC1)C(=O)NCC1OCCN1S(=O)(=O)c1cc(F)ccc1F (configuration not stated),i,0.18
CC(=O)c1cccc(NC(=O)c2ccc(C(=O)Nc3cccc(C(C)=O)c3)nc2)c1,i,0.13
COc1ccccc1NC(=O)c1cc(-c2ccc(C)o2)nc2ccccc12,-8.1*,-0.96*
CCC(C)(C)NC(=O)C(C(C)C)N(CC1CCCO1)C(=O)CNS(=O)(=O)c1ccc(F)cc1 (configuration not stated),i,-0.4
CC(=O)Nc1ccc(S(=O)(=O)NCc2ccc(C)cc2)cc1,i,0.7
COCCNCC(=O)N1CCCCCC1,i,0.66
COc1cccc(/C=N/Nc2ncccc2[N+](=O)[O-])c1OC,i,-0.03
Cc1ccc(-c2nn(-c3ccc(F)cc3)cc2C(=O)NCC2CCCO2)cc1 (configuration not stated),i,-0.06
CC1CN(C(=O)C(Sc2ccccc2)c2ccccc2)CC(C)O1 (configuration not stated),i,1.2
COC(=O)c1[nH]nc(C(=O)OC(C)(C)C)c1-c1ccccc1,i,-0.23
Cc1cc(C)c(C#N)c(SCc2ccccc2C)n1,i,-1.1
COc1cccc(-n2c(SCC(=O)Nc3sc4c(c3C(N)=O)CCC4)nc3ccccc3c2=O)c1,-6.1*,-0.37*

# Next part, starting with the last 7 of the part before.
SMILES,KCNQ2 block,KCNQ2 block baseline
COCCNCC(=O)N1CCCCCC1,i,0.66
COc1cccc(/C=N/Nc2ncccc2[N+](=O)[O-])c1OC,i,-0.03
Cc1ccc(-c2nn(-c3ccc(F)cc3)cc2C(=O)NCC2CCCO2)cc1 (configuration not stated),i,-0.06
CC1CN(C(=O)C(Sc2ccccc2)c2ccccc2)CC(C)O1 (configuration not stated),i,1.2
COC(=O)c1[nH]nc(C(=O)OC(C)(C)C)c1-c1ccccc1,i,-0.23
Cc1cc(C)c(C#N)c(SCc2ccccc2C)n1,i,-1.1
COc1cccc(-n2c(SCC(=O)Nc3sc4c(c3C(N)=O)CCC4)nc3ccccc3c2=O)c1,-6.1*,-0.37*
COc1ccccc1-c1noc(CCC(=O)NC2CCCCC2)n1,i,0.74
O=C(COC(=O)c1cc(NS(=O)(=O)c2cccs2)ccc1O)Nc1cc(Cl)ccc1Cl,i,1.2
COc1cc2c(C#N)c(N3CCCCC3)nc(N)c2c(N)n1,i,-0.67
COCc1cc(C)nc(OCC(=O)N/N=C/c2ccc(C)cc2)c1C#N,i,-1.3
Cc1cc(C)nc(CC(N)=O)n1,i,2.5
COc1ccccc1NC(=O)CN(Cc1ccco1)C(=O)c1ccc(Cl)nc1,i,2.4
Cc1cc(OC(C)C(=O)NCc2ccncc2)c2c(C)c(C)c(=O)oc2c1 (configuration not stated),i,-0.34
CC(=O)c1c(C)[nH]c(C(=O)OCc2c(F)cccc2Cl)c1C,i,2.4
COc1cccc(NC(=O)CC(=O)c2ccccc2)c1,i,1.3
CC(CCc1ccccc1)NCc1cccc2ccccc12 (configuration not stated),i,0.39
CCN(CC)S(=O)(=O)c1ccc(NC(=O)c2cccs2)cc1,i,0.89
Cc1occc1-c1nnc(SCC(=O)N2CCCc3ccccc32)n1Cc1ccco1,i,0.31

# Given with tabs: part of the list above
SMILES	KCNQ2 block	KCNQ2 block baseline
CC[C@H](C)[C@H](NC(=O)c1ccc(Cl)cc1)C(=O)OCC(=O)c1ccc2c(c1)NC(=O)CO2	i	0.07
Cc1ccc(N(CC(=O)NC2CC3CCC2C3)S(C)(=O)=O)cc1C (configuration not stated)	i	0.37

# Following part.
SMILES,KCNQ2 block,KCNQ2 block baseline
O=C(Nc1ccc(F)cc1)N1CCOCC1,i,0.02
COc1ccc(OC)c(-n2c(-c3ccc(O)cc3O)n[nH]c2=S)c1,i,2
COc1ccccc1N1CCN(C(=O)c2ccccc2Oc2ccccc2)CC1,i,-1.5
O=C1c2ccc(-c3ccc4c(c3)C(=O)N(CCCO)C4=O)cc2C(=O)N1CCCO,i,0.65
Cc1noc(C)c1COC(=O)CCCc1c[nH]c2ccccc12,i,-1.3
CN(C)c1ccc(CN(C(=O)/C=C/c2ccco2)C2CCS(=O)(=O)C2)cc1 (configuration not stated),i,-0.03
S=C(Nc1ccccc1)N1CCN(C(=S)Nc2ccccc2)CC1,i,0.66
Cc1ccc(C)c2[nH]c(=O)c(CCNC(=O)CC(C)(C)C)cc12,i,5.7
Cc1ccc(S(=O)(=O)NCc2ccccc2)cc1C(=O)N(C)CC(=O)Nc1c(Cl)cccc1Cl,i,-0.73
CC(Cl)C(=O)c1c(N)n(C)c(=O)n(C)c1=O (configuration not stated),i,-0.57
CC(=O)NC1(C(=O)O)CCCC1,i,2
COc1cccc(C2=NOC(C(=O)Nc3c(C)n(C)n(-c4ccccc4)c3=O)C2)c1 (configuration not stated),i,1.1
O=C(Nc1ccc(Cl)cc1)[C@@H]1[C@@H]2C(=O)N(c3ccc(Cl)cc3Cl)C(=O)[C@@H]2[C@H]2C=CC=NN21,i,0.79
CCc1ccc(OC(=O)c2cncc(Br)c2)cc1,i,-1.2
CC(C)N1C(=O)S/C(=C/c2ccc(Sc3nc4ccccc4[nH]3)o2)C1=O,i,1.4
O=C(c1cccn(Cc2ccc(C(F)(F)F)cc2)c1=O)N1CCOCC1,i,0.85
O=C(c1ccc(F)cc1)N1CCN(c2cc(=O)[nH]nc2-c2ccccc2)CC1,i,0.15
CC(=O)c1cc(CN2CCN(CC=C(C)C)C(CCO)C2)cs1 (configuration not stated),i,0.34
Cc1ccsc1CN1CCN(c2ccccn2)CC1,i,-3
O=S(=O)(O)Oc1c[nH]c2ccccc12,i,-2.6
NC(=O)c1ccccc1N/C=C/C(=O)c1ccco1,i,-0.17
COc1ccc(N(C)S(=O)(=O)c2ccc(C)cc2)c([N+](=O)[O-])c1,i,2.3
Cc1ccc(NC(=O)c2cccc(NC(=O)/C=C/c3ccco3)c2)cc1C,i,0.47
S=C(NCCc1ccccc1)NN=C1CCCCCC1,i,0.82
S=C(NCc1ccccc1Cl)Nc1ccccc1Cl,i,3
CCn1c(SCC(=O)Nc2nc(C)cs2)nnc1-c1ccco1,i,-0.24
COCc1c(C(=O)N2CCN(Cc3ccc(C#N)cc3)CC2)oc2ccccc12,i,-0.35
Cc1ccc(N(O)C(=O)OCCNC(=O)Nc2ccccc2)cc1,i,2.8
Cc1cc(=O)oc2c(C)c(OCC(=O)NCCCN3CCOCC3)ccc12,i,0.2
COc1ccc(NC(=O)CN2CCC(Cc3ccccc3)CC2)cc1S(=O)(=O)N1CCOCC1,i,-0.01
COc1ccc(NC(=O)c2ccc(NC(=O)COC(=O)CC(NC(=O)c3ccccc3Cl)c3ccccc3)cc2)cc1 (configuration not stated),i,0.41
Cc1c(Cl)cccc1NC(=O)CCN1CCCC(C)C1 (configuration not stated),i,-0.27
COc1ccc(NS(=O)(=O)c2cc(NC(=O)c3cccc(OCc4c(C)noc4C)c3)ccc2OC)cc1,i,0.56
c1ccc(-c2noc(C34CC5CC(CC(C5)C3)C4)n2)cc1,i,-0.91
CSc1ccccc1OCc1cc(C(=O)N2CCc3c(Cl)cccc3C2)no1,i,-0.35
CCOc1cccc(N2C(=O)CC(NCc3ccc(S(N)(=O)=O)cc3)C2=O)c1 (configuration not stated),i,-0.96

# Not all compounds are listed. The share of hits here may be higher or lower than overall.
